Screening results as filed in PubChem BioAssay.
rRNA inh HTS – reduced GFP signal of wild-type E. coli, primary screen, bacterial rRNA inhibitor project, GFP/RFP fluorescence, OD600, single point. E. coli WT GFP vs humanized-ribosome RFP mutants, 24 h; stronger effect = lower value; DMSO median 0, no signal -100. GFP signal change (wild-type ribosome), % (concentration not given with the values). 350,000 compounds, 1.6% hits. AID 720706, 2013;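 active means significant combined selectivity score with lowered wild-type GFP, culture density cut under 30%, mutant RFP and density less affected; inactive means any of these conditions unmet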; further: one replicate is shown; some compounds called inactive have numbers as strong as hits
ALR inh – inhibitors of human ALR sulfhydryl oxidase, primary screen, biochemical, H2O2 detection, HRP-luminol luminescence, single point; FAD-linked sulfhydryl oxidase ALR (Homo sapiens), P55789; 290,000 compounds, 3.8% hits; inhibition, % (test concentration not listed); purified ALR, DTT oxidation;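 active means mean and each replicate at 75% or more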;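 further: stock transfer was 7.5 nL into about 7.5 µL; 0% = neutral wells and 100% = wells with inactivated enzyme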
Ecoli growth – E. coli growth inhibition, primary screen, OD600. Escherichia coli growth, 23 h; stronger effect = lower value. OD600 absorbance (concentration not given with the values). 330,000 compounds, 0.21% hits. AID 1053175, 2014;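 active means OD600 absorbance below the run mean of sample wells minus 3.6 SD, in any replicate, cut at about 0.56 in these data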;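 further: stock transfer was 300 nL into about 60 µL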
Beta2AR agonist – beta2AR agonists driving receptor internalization, primary screen, cell-based, FAP fluorogen, flow cytometry | 340,000 compounds, 0.43% hits | Beta-2 adrenergic receptor (Homo sapiens), P07550 | Am2.2-beta2AR cells; reference of the scale not given here | AID 504454, 2011 | response, % (test concentration not listed);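 active means response above a set limit, near 3 SD of response in nonfluorescent compounds, cut at about 42% in these data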;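 further: stock transfer was 100 nL into about 11 µL; a reference agonist was the positive control; negative values mostly stem from fluorescent compounds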
Target sequence (P07550 whole entry, looked up): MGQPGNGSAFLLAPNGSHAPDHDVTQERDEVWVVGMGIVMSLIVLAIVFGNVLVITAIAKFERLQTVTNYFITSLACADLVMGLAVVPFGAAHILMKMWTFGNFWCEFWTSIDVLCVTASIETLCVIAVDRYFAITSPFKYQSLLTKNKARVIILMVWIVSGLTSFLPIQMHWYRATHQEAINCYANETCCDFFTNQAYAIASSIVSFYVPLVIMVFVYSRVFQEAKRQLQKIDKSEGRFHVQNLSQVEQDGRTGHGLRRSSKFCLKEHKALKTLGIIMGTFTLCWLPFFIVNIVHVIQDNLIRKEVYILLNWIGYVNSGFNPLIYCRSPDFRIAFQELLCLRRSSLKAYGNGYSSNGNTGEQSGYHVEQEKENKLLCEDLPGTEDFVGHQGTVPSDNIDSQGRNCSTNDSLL
HNF4A DNA FP – change in binding of human HNF4A to DNA, primary screen, biochemical, fluorescence polarization, FITC-DNA | Hepatocyte nuclear factor 4-alpha (Homo sapiens), P41235 | 1 h | activity change, % at 10 µM | 360,000 compounds, 0.3% hits; in the data active means activity change above about 30%, passing the limit was not always enough;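 further: controls were the assay level and a saturating level of protein; the project sought stronger binding though the title names inhibitors; some compounds called inactive have numbers as strong as hits; positive values seem to mean higher polarization but the record does not say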
FGF22 binding – binders of human FGF22 protein, primary screen, FGF22 synaptogenesis inhibitor project, biophysical, thermal shift, single point | AID 651658, 2012 | recombinant FGF22 thermal shift, SYPRO orange fluorescence; percent of sucrose octasulfate shift, DMSO zero | 340,000 compounds, 1.5% hits | calls only at 9.99 µM | Fibroblast growth factor 22 (Homo sapiens), Q9HCT0;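 active means melting point raised past a set limit in the mean and every replicate; three in four hits are not shown here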
Target sequence (Q9HCT0 whole entry, looked up): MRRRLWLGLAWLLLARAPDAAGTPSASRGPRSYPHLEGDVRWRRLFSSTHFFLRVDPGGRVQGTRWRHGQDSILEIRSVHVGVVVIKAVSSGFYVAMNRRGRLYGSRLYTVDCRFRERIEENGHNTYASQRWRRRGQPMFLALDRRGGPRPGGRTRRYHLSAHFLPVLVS
UCH37 inh – inhibitors of human UCH37 deubiquitinase, primary screen, biochemical, Ub-AMC cleavage, fluorescence. Ubiquitin carboxyl-terminal hydrolase isozyme L5 (Homo sapiens), Q9Y5K5. purified proteasome/UCH37. inhibition, % (concentration not given with the values). 330,000 compounds, 0.33% hits;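 active means mean of two replicates above 20%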;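 further: 0% = compound-free wells with enzyme and 100% = wells lacking proteasome; stock transfer was 100 nL into about 20 µL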
Target sequence (Q9Y5K5 whole entry, looked up): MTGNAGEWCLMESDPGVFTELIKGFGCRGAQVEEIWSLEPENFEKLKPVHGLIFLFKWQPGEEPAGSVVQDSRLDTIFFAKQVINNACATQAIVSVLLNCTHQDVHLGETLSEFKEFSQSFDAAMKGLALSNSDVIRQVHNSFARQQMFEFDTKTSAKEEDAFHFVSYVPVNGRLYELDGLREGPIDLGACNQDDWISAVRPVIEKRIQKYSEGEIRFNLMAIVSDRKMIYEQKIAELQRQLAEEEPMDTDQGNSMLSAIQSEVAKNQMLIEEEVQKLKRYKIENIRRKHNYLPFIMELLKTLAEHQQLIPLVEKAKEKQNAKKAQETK
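Assay system: Proteasome-bound UCH37. Buffer or medium: pH 7.4 Tris-HCl (50 mM) with ovalbumin, ATP-MgCl2, DTT. Incubation: 30 min preincubation with enzyme, 25 min cleavage at room temperature. Measured by: fluorescence, ex 355 nm, em 460 nm. Read-out basis: percent inhibition. Control set: wells without proteasome as full block, compound-free enzyme plus substrate as uninhibited.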
rRNA inh HTS OD600 – also measured in rRNA inh HTS; calls as there; OD600 change, %; measured here: OD600 growth;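 optical density of the mix in the first replicate; 0 = DMSO median and -100 = no signal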
rRNA inh HTS RFP – second read-out of rRNA inh HTS, no call of its own (marks repeat the call); RFP signal change, %; measured here: RFP humanized mutant strains;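 first replicate; 0 = DMSO median and -100 = no signal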
Numbers without * were called inactive; i = inactive; nt = no result given.

SMILES | rRNA inh HTS | rRNA inh HTS OD600 | rRNA inh HTS RFP | ALR inh | Ecoli growth | Beta2AR agonist | HNF4A DNA FP | FGF22 binding | UCH37 inh
O=C(CCN1CCN(Cc2ccccc2)CC1)Nc1cccc(Br)c1 | -6 | -21 | 4.7 | -2 | 0.61 | 8 | -6.9 | i | 4.1
CC(Oc1ccc(Br)cc1)C(=O)Nc1ccc(S(=O)(=O)NC2=NCCCCC2)cc1 (stereo not drawn) | -16 | -16 | 2.5 | nt | 0.65 | -4 | 9.9 | i | 3.0
O=C(CCCc1ccccc1)NCCCN1CCOCC1 | nt | nt | nt | 0 | 0.69 | -2 | -0.4 | nt | 1.4
CNc1snc(C)c1C(=O)OC(C)C(=O)c1ccc(F)cc1 (stereo not drawn) | -24* | -16* | -8.7* | -3 | 0.67 | -7 | 3.8 | i | 2.7
CCOC(=O)c1cc2c(s1)-c1c(C)cccc1OC2 | 5 | -26 | -8.2 | nt | 0.74 | 10 | -0.4 | i | -247
COc1ccc(C2(C(=O)Nc3ccc(S(N)(=O)=O)cc3)CCCC2)cc1 | -19 | -23 | -2.2 | 3 | 0.68 | 2 | 3.0 | i | -2.5
CCOc1ccc(NC(=O)c2cc([N+](=O)[O-])ccc2N2CCOCC2)cc1 | -11 | -8 | -0.3 | 5 | nt | -15 | 1.8 | i | nt
Cc1ccc(SCC(=O)c2c(C)[nH]c3ccccc23)cc1 | 5 | 13 | 5.9 | -3 | 0.69 | 0 | -9.3 | i | -2.3
Cc1ccc(S(=O)(=O)N/N=C/c2ccc(OS(=O)(=O)c3ccc(C)c([N+](=O)[O-])c3)cc2)cc1 | nt | nt | nt | -10 | nt | 5 | -6.5 | nt | nt
COc1cnc(-c2ccccn2)nc1Oc1ccc(F)cc1F | -31 | -33 | -12 | 13 | 0.7 | -12 | -0.1 | i | -0.2
O=C(Nc1ccc([N+](=O)[O-])cc1)C(=O)Nc1cccc(C(=O)O)c1 | 4 | -5 | -0.6 | 2 | nt | -1 | -0.3 | i | nt
O=C(Cc1ccccc1)NCC(=O)OCC(=O)c1ccc(Cl)cc1 | 5 | 10 | -0.2 | 12 | 0.73 | -8 | -0.3 | i | 3.0
CSc1nc2sc3c(c2c(=O)n1CC(C)C)CC(C)(C)OC3 | 12 | 4 | -0.9 | -18 | 0.71 | -2 | 2.4 | i | 2.9
O=C(NCCc1ccccc1F)/C(=C/c1cccnc1)NC(=O)c1ccccc1 | 6 | 10 | -0.5 | 1 | 0.7 | -1 | 1.9 | i | 0.6
CC(=O)Nc1ccc(CN2C(=O)C(C)(C)ON=C2c2ccc(NC(C)=O)cc2)cc1 | 8 | 6 | -1.5 | nt | nt | nt | 1.2 | i | nt
Cc1ccccc1-c1nc(-c2cccnc2)no1 | nt | nt | nt | 13 | 0.72 | -2 | 0.9 | nt | 4.6
COc1cccc(NC(=O)[C@H](Cc2c[nH]c3ccccc23)NC(=O)[C@@H]2Cc3ccccc3CN2)c1 | nt | nt | nt | -5 | 0.69 | -2 | -1.2 | i | -3.9
C/C(Cn1nnc([N+](=O)[O-])n1)=N\NC(=O)c1ccccc1Cl | 3 | -3 | -0.5 | -28 | nt | -2 | 0.9 | i | nt
CN(C(=O)CC1C(=O)NCCN1Cc1ccoc1)C1CCOCC1 (stereo not drawn) | 19 | 8 | 9.0 | -5 | 0.71 | -6 | 2.7 | i | 3.6
CC(C)c1nc2ccccc2n1CCC(=O)O | nt | nt | nt | -4 | 0.67 | 1 | 2.7 | nt | 2.3
COc1cccc(S(=O)(=O)Nc2ccc(C(=O)Nc3ccncc3)cc2)c1 | nt | nt | nt | 29 | 0.7 | 0 | -5.4 | nt | -1.9
N#C/C(=C\Nc1ccc2c(c1)OCCO2)c1nc2ccccc2[nH]1 | nt | nt | nt | 3 | 0.75 | 4 | 11 | nt | 0.7
C=CCC[C@H](CCCCC)OC(=O)/C=C/[C@@H](O)[C@H](O)C[C@H](O)CC=C | 9 | 4 | -2.2 | nt | nt | nt | 5.5 | i | nt
COc1ccc(NS(=O)(=O)c2cc(Br)cc3c2N(C(C)=O)CC3)cc1 | -4 | -1 | 3.1 | -1 | 0.64 | 5 | -1.5 | i | 2.2
CCOc1cc(C(=O)N/N=C(\C)Cc2ccc(OC)cc2)cc(OCC)c1OCC | 6 | 2 | 0.0 | 35 | nt | -7 | -0.7 | i | nt
COc1ccccc1NC(=O)CSc1nnc(Cn2cnc3ccccc32)n1C | nt | nt | nt | -5 | 0.72 | -18 | 2.0 | nt | 3.6
COc1cccc(-c2cc(C(=O)NCc3ccco3)c3ccccc3n2)c1 | -21 | -27 | -3.2 | 12 | 0.7 | 5 | -0.1 | i | -2.8
O=C1CC(C(F)(F)C(F)(F)C(F)(F)C(F)F)=Nc2ccccc2N1 | nt | nt | nt | 4 | 0.66 | -13 | 6.0 | nt | 1.7
Cc1csc(NC(=O)/C=C/c2ccc(C)o2)n1 | nt | nt | nt | 7 | nt | 4 | 2.1 | nt | 4.5
CCOC(=O)c1oc2ccccc2c1N | nt | nt | nt | 0 | 0.72 | 0 | -4.2 | nt | -8.5
CCCOc1ccc(S(=O)(=O)NCc2ccc(OC)cc2)cc1 | nt | nt | nt | -1 | 0.75 | 2 | 2.5 | nt | 4.1
COc1cccc(CNC(=O)C2CCN(S(=O)(=O)c3ccccc3)CC2)c1 | nt | nt | nt | -7 | 0.74 | -5 | 2.2 | nt | 2.7
COc1ccc(N2CCN(CC(=O)c3ccc(Cl)cc3)CC2)cc1 | 5 | 5 | 1.4 | 17 | 0.67 | 7 | -0.7 | i | 2.9
O=C1CCCC/C1=C\Nc1ccc(O)cc1 | -3 | 6 | 19 | 0 | 0.7 | 4 | -2.0 | i | 14
CCCCC(=O)Nc1cc(OC)c(NC(=S)NC)cc1OC | 6 | 5 | 5.5 | -12 | 0.7 | -2 | 0.1 | i | -0.1
O=C(NCC1CCCO1)C1CCN(c2ccc(S(=O)(=O)N3CCCC3)cc2)CC1 (stereo not drawn) | -3 | 1 | 4.1 | nt | 0.64 | 11 | 4.3 | i | 4.1
N#Cc1c(NC(=O)CSc2nnc(-c3ccco3)n2-c2ccccc2)sc2c1CCC2 | nt | nt | nt | 5 | 0.8 | -4 | -6.6 | nt | 0.0
CCCCn1nnnc1SCC(=O)NNC(=O)C1CCCCC1 | nt | nt | nt | -6 | 0.69 | -5 | -0.6 | nt | 1.3
CC(C)c1ccc(N(CC(=O)N2CCOCC2)S(C)(=O)=O)cc1 | 2 | 10 | -1.6 | -7 | nt | 3 | 3.8 | i | nt
COCCn1c(N)c(C(=O)c2cccc(S(=O)(=O)N3CCCCCC3)c2)c(=O)[nH]c1=O | -2 | 1 | -0.8 | -1 | 0.67 | -5 | -1.9 | i | 5.4
CC(=O)Nc1ccc(C(=O)COC(=O)CCS(=O)(=O)c2ccccc2)cc1 | 1 | 5 | -1.5 | 1 | 0.59 | 5 | -3.1 | i | 1.7
CN(CCOC(=O)c1ccc2c(c1)OCCO2)C(C)(C)C | nt | nt | nt | -13 | 0.77 | -1 | -5.1 | nt | -0.8
CN(CC(=O)Nc1ccc(F)cc1)c1ccc(S(=O)(=O)N2CCCCC2)cc1[N+](=O)[O-] | -16 | -15 | 9.7 | 0 | 0.7 | 1 | 1.6 | i | 3.4
CC(=O)c1ccc(-c2ccc(C(=O)N(C)c3c(N)n(Cc4ccccc4)c(=O)[nH]c3=O)o2)cc1 | 3 | 3 | -0.6 | -5 | 0.65 | -9 | -5.7 | i | 0.8
O=C(CS(=O)(=O)c1ccccc1)NCc1ccco1 | 15 | 10 | 0.2 | 0 | 0.73 | 4 | 1.4 | i | 3.2

Another view of 2 compounds above.
Below each compound – rRNA inh HTS	rRNA inh HTS OD600	rRNA inh HTS RFP	ALR inh	Ecoli growth	Beta2AR agonist	HNF4A DNA FP	FGF22 binding	UCH37 inh
CC(=O)c1ccc(-c2ccc(C(=O)N(C)c3c(N)n(Cc4ccccc4)c(=O)[nH]c3=O)o2)cc1
 : 3	3	-0.6	-5	0.65	-9	-5.7	i	0.8
O=C(CS(=O)(=O)c1ccccc1)NCc1ccco1
 : 15	10	0.2	0	0.73	4	1.4	i	3.2

(next part)
SMILES | rRNA inh HTS | rRNA inh HTS OD600 | rRNA inh HTS RFP | ALR inh | Ecoli growth | Beta2AR agonist | HNF4A DNA FP | FGF22 binding | UCH37 inh
Cc1nn(-c2ccccc2)c2c1C(c1c(C)[nH]c(C#N)c1C)C(C#N)=C(N)O2 (stereo not drawn) | nt | nt | nt | 14 | 0.71 | 10 | 0.3 | nt | 1.2
CCc1ccc(Nc2nc(N)nc(CSc3nnnn3-c3ccccc3)n2)cc1 | nt | nt | nt | nt | 0.75 | -8 | -0.6 | nt | 2.1
c1ccc(CSc2nnc(-c3cccs3)n2Cc2ccco2)cc1 | nt | nt | nt | 26 | 0.72 | -2 | 2.6 | nt | 3.0
Cc1cc(C)c2cc(CN(Cc3cccs3)Cc3nnnn3CC3CCCO3)c(=O)[nH]c2c1 (stereo not drawn) | -37* | -22* | -2.7* | 6 | 0.68 | -12 | 0.3 | i | 4.0
C(=N\n1cnnc1)/c1cccnc1 | nt | nt | nt | -1 | nt | -1 | 0.2 | nt | nt
COc1ccccc1/C=C/C(=O)NCc1cccnc1 | 0 | 10 | -4.6 | -6 | 0.73 | 5 | 0.9 | i | -7.9
CC12CC(c3ccccc3O1)C(C(=O)NCc1ccccc1)C(=O)N2 (stereo not drawn) | nt | nt | nt | -3 | 0.64 | -2 | -2.0 | nt | 2.0
COc1ccc(NC(=S)N2CCC(C(=O)c3ccc(C)cc3)CC2)c(OC)c1 | -14 | -17 | 0.1 | -26 | 0.63 | 1 | 0.6 | i | 0.6
O=c1[nH]c(C2CC2)nc2sc3c(c12)CCCC3 | 13 | 11 | -1.5 | -1 | 0.71 | -8 | 1.2 | i | 4.1
O=S(=O)(Nn1cnnc1)c1ccc(F)cc1 | 8 | -1 | 1.6 | 4 | 0.66 | 6 | 2.4 | nt | 3.5
Cc1ccc(S(=O)(=O)N2CCN(c3ccc([N+](=O)[O-])c(NCCN4CCOCC4)c3)CC2)cc1 | -4 | -2 | 1.9 | -12 | 0.64 | 9 | 0.6 | i | 3.5
O=C(OCc1ccccc1C(F)(F)F)c1ccc(Br)c(S(=O)(=O)N2CCOCC2)c1 | 0 | -6 | -2.5 | nt | 0.74 | 7 | -3.3 | i | 1.4
Cn1c2ccccc2c(=O)c2cc(C#Cc3cccc(N)c3)ccc21 | nt | nt | nt | -7 | 0.74 | 13 | 3.7 | nt | 2.9
CC12CCC3(CO)COC(c4ccccc4O1)C2C3 (stereo not drawn) | nt | nt | nt | -2 | 0.63 | 2 | -0.1 | nt | 5.0
C#CCOCC1CNC(=S)O1 (stereo not drawn) | 4 | 12 | -2.3 | nt | nt | nt | -1.9 | i | nt
O=C(NCc1ccc(F)cc1)C1C2C=CC3(CN(Cc4cccnc4)C(=O)C13)O2 (stereo not drawn) | nt | nt | nt | -18 | 0.75 | 3 | 2.7 | nt | 3.8
CCO/C=C1/C(=O)N(c2ccccc2OC)C(=O)c2ccccc21 | 3 | 2 | -1.9 | -3 | 0.7 | -5 | -0.4 | i | -147

Only part of the results is shown; count on the stated rates, not on these rows.
